AmpC inh no det – Promiscuous and Specific Inhibitors of AmpC Beta-Lactamase (assay without detergent) | P00811 | AmpC nitrocefin hydrolysis, absorbance 480 nm, no detergent; potencies from a single point are estimates | Potency, µM (series often up to 28.7 µM), inactives show top-dose activity change, negative = inhibition | actives 1.8% (n = 71,000) | AID 585, 2007; active = falling curve, for most hits resting on a single point; inconclusive = weak or doubtful change; inactive = flat or rising curve; note: % of control where 0% means no effect; about half of the hits show no inhibition at the top dose; a quarter of the inactives give rising signals
Target sequence (P00811 whole entry, looked up): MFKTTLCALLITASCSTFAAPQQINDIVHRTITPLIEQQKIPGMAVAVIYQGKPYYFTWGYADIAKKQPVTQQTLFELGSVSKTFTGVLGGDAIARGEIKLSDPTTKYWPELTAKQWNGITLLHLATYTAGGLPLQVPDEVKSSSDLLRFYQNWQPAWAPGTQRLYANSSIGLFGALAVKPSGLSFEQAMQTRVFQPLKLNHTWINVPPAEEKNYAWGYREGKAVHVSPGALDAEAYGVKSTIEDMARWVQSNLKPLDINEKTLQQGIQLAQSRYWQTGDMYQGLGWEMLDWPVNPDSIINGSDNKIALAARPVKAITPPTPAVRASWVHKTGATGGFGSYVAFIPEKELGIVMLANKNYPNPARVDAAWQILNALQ
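Enzyme, pH 7.0 phosphate. Compound titrations were pre-incubated with AmpC for 15 min at room temperature before nitrocefin (stock 800 uM) addition; product formation was recorded at 480 nm every 20 s for 4 min.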
* = called active by the depositor; [ ] = remark or other dose. Potency is the fitted concentration of half-maximal effect. A portion of the library. The share of hits here may be higher or lower than overall.

How did O=C(OCC(=O)c1ccc(S(=O)(=O)N2CCCC2)cc1)C1=COCCO1 do in these assays?
AmpC inh no det: -5%

What do the screens show for `CCOC(=O)c1c(C)oc2c1c(C=NCC1CCCO1)c(O)c1ccccc12` (centres undefined)?
AmpC inh no det: 122%

Results for CCCCOC(=O)C(C)Oc1ccc(=O)n(-c2ccccc2)n1 (centres undefined) ?
AmpC inh no det: 53%

How did N#Cc1cccc(NC(=O)N2CC[C@@]3(CCCN(C(=O)Oc4ccccc4)C3)C2)c1 do in these assays?
AmpC inh no det: 14%

What do the screens show for `O=C(Cn1nnc(-c2ccc(CN3CCOCC3)cc2)n1)N1CCCc2ccccc21`?
AmpC inh no det: 128%

What do the screens show for `Cc1cc(C)nc(N(C#N)CCOc2ccccc2)n1`?
AmpC inh no det: 7%

How did CCOC(=O)CNC(=O)c1ccc2[nH]c3c(c2c1)CCCC3 do in these assays?
AmpC inh no det: -4%

What do the screens show for `CCOC(=O)C1CCCN(C(=O)Nc2cccc(Cl)c2)C1` (centres undefined)?
AmpC inh no det: -1%

How did O=C1c2ccccc2C(=O)N1CCn1c(=O)oc2ccccc21 do in these assays?
AmpC inh no det: -6%

What do the screens show for `Cc1ccc(S(=O)(=O)NCCNC(=O)c2ccccc2)cc1`?
AmpC inh no det: 1%

A stretch taken from the entries so far, as a working copy:
What do the screens show for `O=C(Cn1nnc(-c2ccc(CN3CCOCC3)cc2)n1)N1CCCc2ccccc21`?
AmpC inh no det: 128%

What do the screens show for `Cc1cc(C)nc(N(C#N)CCOc2ccccc2)n1`?
AmpC inh no det: 7%

How did CCOC(=O)CNC(=O)c1ccc2[nH]c3c(c2c1)CCCC3 do in these assays?
AmpC inh no det: -4%

What do the screens show for `CCOC(=O)C1CCCN(C(=O)Nc2cccc(Cl)c2)C1` (centres undefined)?
AmpC inh no det: -1%

How did O=C1c2ccccc2C(=O)N1CCn1c(=O)oc2ccccc21 do in these assays?
AmpC inh no det: -6%

What do the screens show for `Cc1ccc(S(=O)(=O)NCCNC(=O)c2ccccc2)cc1`?
AmpC inh no det: 1%

(more compounds)
Results for O=c1cc(-c2ccccc2)oc2ccccc12 ?
AmpC inh no det: -4%

How did Cc1cc2oc(=O)cc(CN3CCN(Cc4ccccc4)CC3)c2cc1Cl do in these assays?
AmpC inh no det: 107%

What do the screens show for `CCOCCn1c(CN2CCC(Cc3ccccc3)CC2)nc2c1c(=O)n(C)c(=O)n2C`?
AmpC inh no det: 113%

How did COc1ccc(C)cc1NC(=O)c1[nH]c(C)c(C(C)=O)c1C do in these assays?
AmpC inh no det: 10%

Results for Cc1cc(C(=O)OCc2nc3ccccc3s2)c(C)o1 ?
AmpC inh no det: -2%

How did Cc1nnc(SCc2nnc(-c3ccccc3Br)o2)n1-c1ccccc1 do in these assays?
AmpC inh no det: 25%

What do the screens show for `Cc1cccc(OCCNC(=O)c2ncn[nH]2)c1`?
AmpC inh no det: -4%

How did COc1ccc(-c2noc(CCC(=O)N(C)c3cccc(C)c3)n2)cc1 do in these assays?
AmpC inh no det: 111%

Results for O=C(CSc1nnc(Cc2ccccc2)o1)NCCc1ccccc1 ?
AmpC inh no det: 24%

Results for CC(C)(C)NC(=O)C(c1ccco1)N(C(=O)c1csnn1)c1ccccc1 (centres undefined) ?
AmpC inh no det: 12%

Results for O=C(COC(=O)CN1C(=O)c2ccccc2C1=O)Nc1ncc(Cl)cc1Cl ?
AmpC inh no det: -3%

What do the screens show for `O=S(=O)(c1ccc(Cl)cc1)N1CCSC1c1ccco1` (centres undefined)?
AmpC inh no det: -4%

Results for CCOC(=O)c1cccc(NC(=O)C2CCCN2S(=O)(=O)c2cccc3cccnc23)c1 (centres undefined) ?
AmpC inh no det: 19%

How did COc1ccc(-c2nc(C#N)c(NCc3ccc(F)cc3)o2)cc1OC do in these assays?
AmpC inh no det: 65%

How did C=CCN1C(=O)C(O)(CC(=O)c2ccccc2)c2ccccc21 (centres undefined) do in these assays?
AmpC inh no det: -2%

What do the screens show for `COc1ccc(Br)cc1C1NC(=O)c2c(sc3c2CCN(C)C3)N1` (centres undefined)?
AmpC inh no det: 48%

What do the screens show for `COC(=O)c1c(NC(=O)C2CCC2)sc(C(=O)N(C)C)c1C`?
AmpC inh no det: -5%

How did COCCCn1c(SCC(=O)Nc2ccc(C(=O)OC)cc2)nc2ccccc2c1=O do in these assays?
AmpC inh no det: 110%

What do the screens show for `COc1ccccc1-n1c(-c2cccnc2)n[nH]c1=S`?
AmpC inh no det: -6%

How did Cc1nn(-c2ccccc2)c(C)c1NS(=O)(=O)c1ccccc1 do in these assays?
AmpC inh no det: -5%

What do the screens show for `Cc1ccccc1NC(=O)C1CCCN(S(=O)(=O)c2cccc3cccnc23)C1` (centres undefined)?
AmpC inh no det: 11%

What do the screens show for `C=CC(=C)CCC=C(C)C`?
AmpC inh no det: -13%

How did Cc1ccc(OCCNS(=O)(=O)c2cccs2)cc1 do in these assays?
AmpC inh no det: 3%

How did c1ccc(Cn2nnnc2CN2CCCC2)cc1 do in these assays?
AmpC inh no det: -5%

Results for COc1ccc(CC(=O)Nc2ccc(-c3nnc(-c4ccc(C)cc4)o3)cc2)cc1 ?
AmpC inh no det: 14%

How did COc1ccc(C(=O)Nc2cccc(C)c2)cc1S(=O)(=O)N1CCOCC1 do in these assays?
AmpC inh no det: 60%

What do the screens show for `COCCN(CCOC)c1nc(C)nc2c1nc(-c1ccccc1)n2CCN1CCOCC1`?
AmpC inh no det: 145%

How did CCOc1ccc(C(=O)NC2CCN(S(=O)(=O)CC)CC2)cc1 do in these assays?
AmpC inh no det: 6%

Results for CCC(C)NC(=O)c1cn(CC)c2ccc(S(=O)(=O)N(C)C)cc2c1=O (centres undefined) ?
AmpC inh no det: 86%

How did Cc1cc(=O)[nH]c(SCC2(O)C3CC4CC(C3)CC2C4)n1 (centres undefined) do in these assays?
AmpC inh no det: -1%

What do the screens show for `COC(=O)C1=C(C)NC(=O)CC1c1cccc(Cl)c1Cl` (centres undefined)?
AmpC inh no det: 16%

How did CN1CCN(C(=O)c2c(NC(=O)c3ccco3)sc3c2CCC(C(C)(C)C)C3)CC1 (centres undefined) do in these assays?
AmpC inh no det: 121%

How did COc1ccc(Cl)cc1NC(=O)CSc1nc(N2CCCCC2)nc(N2CCCCC2)n1 do in these assays?
AmpC inh no det: -5%

How did Cc1c(C(=O)Nc2ccc3oc(-c4cccnc4)nc3c2)oc2ccccc12 do in these assays?
AmpC inh no det: 118%

What do the screens show for `C/C(=N/O)[C@@H]1C[C@H](CC(=O)O)C1(C)C`?
AmpC inh no det: 4%[5.75 µM]

How did COc1ccc2nc(CC(C)(C)CC(=O)O)c[n+]([O-])c2c1 do in these assays?
AmpC inh no det: -1%

How did CN(Cc1cccs1)C(=O)CCc1ccc(S(=O)(=O)N2CCOCC2)cc1 do in these assays?
AmpC inh no det: 56%

Results for CCN(CC)C(=O)CSc1nc2ccccc2c(=O)[nH]1 ?
AmpC inh no det: 2%

Results for CCCCCn1c(NCc2ccco2)nc2ccccc21 ?
AmpC inh no det: 5%

What do the screens show for `NCCCCCCN`?
AmpC inh no det: -2%

Results for CCCCCSc1nnc2c(n1)OC(c1cccn1C)N(C(C)=O)c1ccccc1-2 (centres undefined) ?
AmpC inh no det: 78%

How did CCN(Cc1ccccc1)C(=O)CCCOc1ccccc1 do in these assays?
AmpC inh no det: 52%

Results for Cn1cccc1Cc1nnc(SCC(=O)N2CCCCCC2)n1CCc1ccccc1 ?
AmpC inh no det: 97%

What do the screens show for `CC12CCC(C(=O)N3CCN(Cc4ccccc4)CC3)(OC1=O)C2(C)C` (centres undefined)?
AmpC inh no det: 63%

Results for CN(C)c1ccc(-c2nc(N(C)C)c3ccccc3n2)cc1 ?
AmpC inh no det: 30%

How did O=C(NCc1ccco1)c1cnccn1 do in these assays?
AmpC inh no det: -6%

What do the screens show for `CS(=O)(=O)N(CC(=O)N1CCN(c2ccccc2F)CC1)c1cc(C(F)(F)F)ccc1Cl`?
AmpC inh no det: 82%

How did CC1(CC(=O)O)SC(=O)NC1=O (centres undefined) do in these assays?
AmpC inh no det: -1%

How did Cc1ccc2c(c1)-c1cc(C)nn1C(c1sccc1C)N2 (centres undefined) do in these assays?
AmpC inh no det: 7%

Results for CCCC(=O)N1CCN(C2=NS(=O)(=O)c3ccccc32)CC1 ?
AmpC inh no det: 1%

What do the screens show for `Cc1ccc(-n2c(SCC(=O)NCc3ccco3)nc3sc(C)c(C)c3c2=O)cc1`?
AmpC inh no det: -2%

How did Nc1nnc(SCCOc2ccccc2)s1 do in these assays?
AmpC inh no det: -6%

How did CCN(CCCCN1C(=O)c2ccccc2C1=O)c1ccc2c(c1)C(=O)N(C)C2=O do in these assays?
AmpC inh no det: 69%

Results for O=c1c(-c2ccc(F)cc2)nc2cnc(Oc3ccccc3)nc2n1Cc1cccs1 ?
AmpC inh no det: 3%

Results for COCCN(C(=O)CNC(=O)c1ccco1)C(C(=O)NC1CCCCC1)c1cccc(OC)c1 (centres undefined) ?
AmpC inh no det: 48%

What do the screens show for `O=c1c(-c2cccs2)nc2cncnc2n1-c1ccccc1`?
AmpC inh no det: -15%

How did COC(=O)[C@@]1(Cc2ccccc2)[C@@H]2C(=CC(=O)[C@H]2CC(=O)C(=O)N(C)C)CN1C(=O)c1ccccc1 do in these assays?
AmpC inh no det: 160%

What do the screens show for `COc1ccc(-n2nnnc2SCC(=O)Nc2ccc3c(c2)OCCO3)c(OC)c1`?
AmpC inh no det: -1%

Results for COC(=O)c1sc(N)c(C(=O)OC)c1CSc1nnnn1C ?
AmpC inh no det: -3%

How did O=C(Cc1ccccc1)N1CCC(C(=O)N2CCN(c3ccc(F)cc3)CC2)CC1 do in these assays?
AmpC inh no det: 89%

What do the screens show for `Cn1c(=O)c2[nH]cnc2n(-c2ccccc2)c1=O`?
AmpC inh no det: 8%

What do the screens show for `Cc1ccc2c(c1)N(CC(=O)N1CCCc3ccccc31)C(=O)CO2`?
AmpC inh no det: 19%

How did CCOC(=O)c1c(N2C(=O)C3C4C=CC(O4)C3C2=O)sc2c1CCCC2 (centres undefined) do in these assays?
AmpC inh no det: 52%

What do the screens show for `CCc1cc2c(=O)n(-c3ccccc3)cnc2s1`?
AmpC inh no det: 2%

What do the screens show for `CCn1ccc(=N)cc1`?
AmpC inh no det: 1%

What do the screens show for `O=C1CCCN1CCCn1cnc2c([nH]c3ccc(F)cc32)c1=O`?
AmpC inh no det: 7%

Results for COC(=O)c1ccc(CSc2nc3ccccc3o2)cc1 ?
AmpC inh no det: -1%

How did O=C(O)CCCc1ccc2ccc3ccccc3c2c1 do in these assays?
AmpC inh no det: -9%[5.75 µM]

Results for O=C(NCCN1CCN(Cc2ccccc2)CC1)C1c2ccccc2C(=O)N2CCc3ccccc3C12 (centres undefined) ?
AmpC inh no det: 70%

Results for CCOC(=O)C1CCN(C(=O)Nc2ccc(Cl)cc2)CC1 ?
AmpC inh no det: 7%

Results for COc1ccc(OC)c(S(=O)(=O)N2CCN(C34CC5CC(CC(C5)C3)C4)CC2)c1 ?
AmpC inh no det: 52%

Results for CCCc1cc(C(=O)NCC(C)C)no1 ?
AmpC inh no det: 6%

Results for CC1CCCCN1C(=O)c1ccc(C(=O)N2CCCCC2C)cc1 (centres undefined) ?
AmpC inh no det: 14%

What do the screens show for `CCOC(=O)CSc1cc(C)nc(N)n1`?
AmpC inh no det: -3%

How did COc1ccc(N2CCN(CCNC(=O)CCCn3c(=O)[nH]c4cc(Cl)ccc4c3=O)CC2)cc1 do in these assays?
AmpC inh no det: 62%

What do the screens show for `Cc1cc(NS(=O)(=O)c2ccc(NC(=O)CCCC(=O)O)cc2)nc(C)n1`?
AmpC inh no det: 4%

How did COc1ccc(C(NC(C)=O)c2ccc3cccnc3c2O)c(OC)c1 (centres undefined) do in these assays?
AmpC inh no det: 23%

What do the screens show for `COCCN(C(=O)CNC(=O)c1cccs1)C(C(=O)NC1CCCCC1)c1ccco1` (centres undefined)?
AmpC inh no det: 13%

What do the screens show for `COc1ccccc1CN(Cc1cc2c(C)ccc(C)c2[nH]c1=O)Cc1nnnn1Cc1ccco1`?
AmpC inh no det: 58%

What do the screens show for `CCCC1(C(=O)O)NC(c2ccccc2O)C2C(=O)N(c3cccc(Cl)c3)C(=O)C21` (centres undefined)?
AmpC inh no det: -3%

Compounds shown so far containing fluorine:
How did COc1ccc(-c2nc(C#N)c(NCc3ccc(F)cc3)o2)cc1OC do in these assays?
AmpC inh no det: 65%

What do the screens show for `CS(=O)(=O)N(CC(=O)N1CCN(c2ccccc2F)CC1)c1cc(C(F)(F)F)ccc1Cl`?
AmpC inh no det: 82%

Results for O=c1c(-c2ccc(F)cc2)nc2cnc(Oc3ccccc3)nc2n1Cc1cccs1 ?
AmpC inh no det: 3%

How did O=C(Cc1ccccc1)N1CCC(C(=O)N2CCN(c3ccc(F)cc3)CC2)CC1 do in these assays?
AmpC inh no det: 89%

What do the screens show for `O=C1CCCN1CCCn1cnc2c([nH]c3ccc(F)cc32)c1=O`?
AmpC inh no det: 7%

The list continues:
How did OCCN1CCN(CCC=C2c3ccccc3Sc3ccc(Cl)cc32)CC1 do in these assays?
AmpC inh no det: 89%[12.8 µM]

Results for CC(=O)c1cccc(NC(=O)C2CCCN(S(=O)(=O)c3ccc(F)cc3)C2)c1 (centres undefined) ?
AmpC inh no det: 8%

What do the screens show for `Cn1c(=O)cc(SCC(=O)N2CCN(Cc3ccc4c(c3)OCO4)CC2)c2ccccc21`?
AmpC inh no det: 162%

How did CCOC(=O)C1CCCN(Cc2cc(Br)ccc2OC)C1 (centres undefined) do in these assays?
AmpC inh no det: 26%

Source: PubChem
